VDR inh: vitamin D3 receptor (human) inhibition; VDR-SRC2-3 peptide fluorescence polarization, 2 h; AID 504847; P11473; Potency, µM, for the others: max response, negative = inhibition, most hits filed as inhibitors; hit rate 0.93% among 400,000; active = well fitted inhibition curve with a large enough effect; inconclusive = small, poorly fitted or top-dose-only effect, or another doubt; inactive = no such curve, though single readings can be large or run the other way; note: series mostly up to about 120 µM
Target sequence (P11473 whole entry, looked up): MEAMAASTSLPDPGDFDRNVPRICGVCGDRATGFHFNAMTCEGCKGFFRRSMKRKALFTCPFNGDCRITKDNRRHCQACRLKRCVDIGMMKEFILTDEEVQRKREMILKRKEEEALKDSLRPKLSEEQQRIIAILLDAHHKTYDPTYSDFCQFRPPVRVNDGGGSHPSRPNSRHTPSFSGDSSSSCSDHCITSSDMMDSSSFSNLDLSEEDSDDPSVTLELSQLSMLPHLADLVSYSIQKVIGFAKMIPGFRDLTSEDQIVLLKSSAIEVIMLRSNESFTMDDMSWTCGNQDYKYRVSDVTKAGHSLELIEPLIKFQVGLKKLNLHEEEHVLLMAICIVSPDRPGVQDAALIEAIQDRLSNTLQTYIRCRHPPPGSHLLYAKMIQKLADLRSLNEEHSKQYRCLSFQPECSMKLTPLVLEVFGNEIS
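After 23 nl compound addition and a short centrifugation, plates sat for 2 hours at ambient temperature; polarization of fluorescence then indicated loss of VDR binding to peptide SRC2-3.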
Numbers without * were called inactive; ? = inconclusive; & = joins results of further samples. % is set by controls: 0 for no effect and ±100 for the full control effect; potency is the fitted concentration of half-maximal effect. These rows are one share of the data. The share of hits here may be higher or lower than overall.

A first look, 2 compounds:
no.	smiles	VDR inh
1	CCCOc1ccc(-c2nonc2NC(=O)c2oc3ccc(Cl)cc3c2C)cc1OCCC	3.2%
2	CCOC(=O)CNC(=O)C(NC(=O)C1CCC(C)CC1)C(C)CC (stereo unspecified)	-3.5%

The list itself (from the top)
no.	smiles	VDR inh
1	CCCOc1ccc(-c2nonc2NC(=O)c2oc3ccc(Cl)cc3c2C)cc1OCCC	3.2%
2	CCOC(=O)CNC(=O)C(NC(=O)C1CCC(C)CC1)C(C)CC (stereo unspecified)	-3.5%
3	CCC(C)(C)NC(=O)C1CCCN1C(=O)NC1CCCCC1 (stereo unspecified)	-10.9%
4	CCn1nnnc1SCC(=O)Nc1cccc(C)n1	-2.7%
5	COc1cccc(Nc2ncc3nc(CCc4ccccc4)c(=O)n(C4CC4)c3n2)c1	3.8%
6	C=CCN(C(=O)COc1ccccc1)c1nnc(-c2ccncc2)s1	-2.3%
7	CC(C)CN(CCCNC(=O)CN1C(=O)CSc2ccc(S(=O)(=O)N3CCOCC3)cc21)CC(C)C	-21.2%&8.0%
8	O=C(O)c1ccccc1NC(=O)C1CCCO1 (stereo unspecified)	0.7%
9	CC1CCCCN1C(=O)c1c(Cl)cnn1C (stereo unspecified)	4.6%
10	COc1cccc(C2C3CN(C)CC=C3C(C#N)=C(N)C2(C#N)C#N)c1OC (stereo unspecified)	1.4%
11	CCOC(=O)C(=CNc1cc(C)ccc1[N+](=O)[O-])C(=O)OCC	0.2%
12	COc1ccccc1NC(=O)c1cc(Cl)ccc1NC(=O)c1ccco1	-4.0%
13	Cc1ccc(-c2cc(C(=O)N/N=C/c3cccnc3)c3ccccc3n2)cc1C	-1.4%
14	COc1cc(C(=O)NCCNc2nc3c(C)c(C)ccc3cc2C#N)cc(OC)c1OC	-10.9%
15	Cn1c(=O)c2c(nc(N3CCCCCC3)n2Cc2cccc3ccccc23)n(C)c1=O	-12.6%
16	O=C(O)CSCC(=O)NCc1c(Cl)cccc1Oc1ccccc1	-10.2%
17	CN(C(=O)c1ccc2c(c1)N(Cc1ccccc1F)C(=O)c1ccccc1S2(=O)=O)C1CCCCC1	-12.7%
18	COc1ccccc1N1CCN(C(=O)c2ccc(S(=O)(=O)N3CCCC3)cc2)CC1	2.6%
19	Cc1cc(C)cc(-n2nnnc2SCC(=O)N2CCOCC2)c1	3.3%
20	COc1cc(/C=N/NS(=O)(=O)c2ccc(C)cc2)ccc1OCc1cccc(C(=O)O)c1	-10.9%
21	COc1ccc(C(=O)Nc2ccnn2C2CCN(C(=O)c3cc(C)on3)CC2)cc1	0.2%
22	COc1ccc(/C=N\NC(=O)COc2ccc(Cl)cc2Cl)c(C(=O)O)c1OC	-11.9%
23	CN(C(=O)CSc1nc2ccccc2c(=O)n1-c1ccc(F)cc1)C1CCS(=O)(=O)C1 (stereo unspecified)	-5.3%
24	Cn1cccc1P(=O)(c1cccn1C)c1cccn1C	14.5%
25	[O-]/[N+](=C\c1ccncc1)c1ccccc1	79.4µM*
26	COc1ccc(N2CCN(S(=O)(=O)c3ccc4c(c3)NC(=O)CC(=O)N4)CC2)cc1	20.0%
27	COc1ccc(Cn2c(SC)nc3ccccc32)cc1[N+](=O)[O-]	3.6%
28	O=C(NNC(=O)c1cc2cc(Br)ccc2oc1=O)c1ccc(O)cc1O	-13.8%
29	CC(Oc1ccccc1[N+](=O)[O-])C(=O)N/N=C/c1ccoc1 (stereo unspecified)	7.1%
30	CCOc1ccc(CN2CCN(c3ncnc4sc5c(c34)CC(C)CC5)CC2)cc1 (stereo unspecified)	-10.1%

6 of the entries above in order of the VDR inh value, smallest number first.
no.	smiles	VDR inh
28	O=C(NNC(=O)c1cc2cc(Br)ccc2oc1=O)c1ccc(O)cc1O	-13.8%
17	CN(C(=O)c1ccc2c(c1)N(Cc1ccccc1F)C(=O)c1ccccc1S2(=O)=O)C1CCCCC1	-12.7%
20	COc1cc(/C=N/NS(=O)(=O)c2ccc(C)cc2)ccc1OCc1cccc(C(=O)O)c1	-10.9%
23	CN(C(=O)CSc1nc2ccccc2c(=O)n1-c1ccc(F)cc1)C1CCS(=O)(=O)C1 (stereo unspecified)	-5.3%
19	Cc1cc(C)cc(-n2nnnc2SCC(=O)N2CCOCC2)c1	3.3%
27	COc1ccc(Cn2c(SC)nc3ccccc32)cc1[N+](=O)[O-]	3.6%

Remaining list, next part
no.	smiles	VDR inh
31	COc1ccc(-c2ccc(C3C4C=CCC(C)C4C(=O)N3Cc3ccccc3)c(F)c2)cc1 (stereo unspecified)	-7.5%
32	COc1ccccc1-c1cc(C(F)(F)F)nc(S(=O)(=O)CCCC(=O)Nc2cc(C)on2)n1	-3.6%
33	COc1ccccc1CCNC(=O)C(=O)NCC(c1ccco1)S(=O)(=O)c1ccccc1 (stereo unspecified)	14.3%
34	COCCn1c(SCC(=O)Nc2ccccc2)nnc1-c1ccoc1C	-10.3%
35	CC(=O)Nc1ccc(S(=O)(=O)N2CCN(c3ncccn3)CC2)cc1	-27.3%
36	O=C(O)c1ccc(Cl)cc1NC(=O)C1CCCO1 (stereo unspecified)	-8.6%
37	Cc1nc2ccn(Cc3ccco3)c(=O)c2cc1C(=O)N1CCN(c2ccc(F)cc2)CC1	5.5%
38	CCn1c(=O)[nH]c2ccccc21	9.1%
39	CCCCn1c(SCC(=O)N2CCC(C)CC2)nc2ccsc2c1=O	5.1%
40	CS(=O)(=O)N1N=C(c2ccco2)CC1c1ccccc1 (stereo unspecified)	-12.2%
41	O=C(O)C1C2C=CC3(CN(Cc4ccncc4)C(=O)C13)O2 (stereo unspecified)	-1.1%
42	COc1ccc(-c2nc(-c3ccccc3)no2)c(OC)c1	17.7%
43	COc1cccc(Cn2nnc3c(=O)[nH]c(C4CCCN(C(=O)c5ccc(C)cc5)C4)nc32)c1 (stereo unspecified)	0.1%
44	Cc1nc(/C(N)=N/OC(=O)c2c(-c3ccccc3Cl)noc2C)cs1	13.7%
45	COc1ccc(-c2cc(C(F)(F)F)nc(SCCC(=O)NCc3ccco3)n2)cc1	7.9%
46	O=C(c1ccco1)N1CCC2(CC1)CN(c1cccc(-c3ccccc3)c1)C2	?
47	CCOC(=O)c1ccc(NC(=O)C2CC(=O)N(c3ccc(C(C)C)cc3)C2)cc1 (stereo unspecified)	-23.6%
48	CCN(CC(=O)Nc1ccc(OC)cc1)C(=O)c1oc2c(Cl)cccc2c1C	-10.6%
49	COc1ccc(OC)c2[nH]c(=O)c(CCNC(=O)COc3ccccc3)cc12	-9.6%
50	COc1ccccc1NC(=O)C/C(C)=N/NC(=O)COc1c(Br)cc(Br)cc1OC	-20.5%
51	O=C(CSc1n[nH]c(-c2ccccc2)n1)Nc1ncccn1	-4.4%
52	COc1cnc(-c2ccccn2)nc1Sc1cccc(Cl)c1	-9.2%
53	CCc1nccn1S(=O)(=O)c1cccc([N+](=O)[O-])c1	-2.6%
54	CC(C)(C)C(=O)Nc1ccc(-c2cn3cccnc3n2)cc1	2.3%
55	COc1ccc(OC)c(NC(=O)CSc2nnc(Cn3nnc4ccccc43)n2C)c1	-5.5%
56	COc1ccc(C2COC(=O)C2=N)c(NC(=O)c2ccccc2)c1 (stereo unspecified)	-13.4%
57	O=S(=O)(NC(=S)NC1CCCCC1)c1ccc(Cl)cc1	2.4%
58	CO[C@H]1OC2O[C@@]3(C)CC[C@H]4[C@H](C)CC[C@@H]([C@H]1C)[C@@]24OO3 (stereo partly specified)	4.9%
59	COc1ccc(Cl)cc1NC(=O)Cn1ncc2c3ccccc3n(C)c2c1=O	2.5%
60	O=C(COc1ccc(Cl)cc1Cl)NN1C(=O)C2C3C=CC(C3)C2C1=O (stereo unspecified)	-7.4%
61	Cc1ccc(CNC(=O)CN2C(=O)COc3ccccc32)cc1	2.6%
62	O=C(CC1SC(=Nc2cccc3ccccc23)N(Cc2ccccn2)C1=O)Nc1ccccc1Br (stereo unspecified)	-6.4%
63	C/C(=N/NC(=O)CNC(=O)c1cccnc1)c1ccccc1	5.5%
64	Cc1nn(C)c(Oc2cccc(Cl)c2)c1C(=O)O	1.8%
65	CCCCN1CC(C(=O)NC2CCCCC2)CC1=O (stereo unspecified)	6.3%
66	COc1ccc(/C=C(\C#N)C(=O)N=CN(C)C)cc1	-5.4%
67	COc1ccc(S(=O)(=O)N(C)CC(=O)NC2CCCCC2)cc1OC	-0.3%
68	O=C(COc1ccc(Cl)cc1Cl)NCCC1=CCCCC1	7.6%
69	CCOC(=O)C1CCN(C(=O)COc2ccc3c(c2)OCO3)CC1	13.8%
70	COC(=O)c1scc(-c2ccc(C)cc2)c1S(=O)(=O)Nc1cccc(Cl)c1C	13.0%
71	CCN1CCN(Cc2ccc(NC(=O)c3cc(NC(=O)c4cc5cccc(OC)c5o4)cc(OC)c3)cc2C(F)(F)F)CC1	2.1%
72	Cn1c(SCc2nnc(-c3ccccc3Br)o2)nc2sc3c(c2c1=O)CCC3	5.4%
73	Cc1ccc(S(=O)(=O)NCC2CCC(C(=O)NCCc3ccc(Cl)cc3)CC2)cc1 (stereo unspecified)	23.1%
74	CCOC(=O)C1=CNS(=O)(=O)NC1CCc1ccccc1 (stereo unspecified)	-24.8%
75	CCOc1ccc(S(=O)(=O)NCCC(=O)N2CC(C)OC(C)C2)cc1 (stereo unspecified)	12.3%
76	CCC1CCCCN1CCCNC(=O)c1ccc2nc(N3CCCCC3)sc2c1 (stereo unspecified)	-9.0%
77	COc1ccc(C(=O)NC(C)c2ccncc2)cc1S(=O)(=O)N(C)Cc1ccccc1 (stereo unspecified)	-13.4%
78	COc1ccc2nc(C)cc(Nc3ccc(C)cc3)c2c1	-6.4%
79	O=c1cc(-c2ccccc2)[nH]n1-c1ccc([N+](=O)[O-])cc1	-17.9%
80	COc1ccc(CN=Cc2c(C(=O)O)[nH]c3ccccc23)cc1	-5.4%
81	Cc1ccc([N+](=O)[O-])c(OCC(=O)OCC(=O)c2ccccc2)c1	-6.9%
82	NCC1CCC(C(=O)Oc2ccc(CCC(=O)O)cc2)CC1 (stereo unspecified)	-11.8%&-3.8%
83	O=C(c1cc(-c2ccncc2)nc2ccc(Cl)cc12)N1CCN(Cc2ccc3c(c2)OCO3)CC1	-10.4%
84	O=C(CSc1nc2c(c(=O)[nH]1)CCCC2)Nc1ccccc1C(F)(F)F	-5.3%
85	CCCN1C(=O)c2[nH]nc(-c3ccccc3O)c2C1c1ccc(OCc2ccccc2)c(OC)c1 (stereo unspecified)	-5.1%
86	CCC(C)(C)NC(=O)c1ccc(S(=O)(=O)N(C)c2ccccc2OC)cc1	-17.8%
87	CC(C)c1nc2oc3c(=O)[nH]cnc3c2c2c1CCC2	9.9%
88	CCOC(=O)c1cnc2ccc(C)cc2c1NCCO	6.3%
89	CCC(=O)N1N=C(c2ccc(NS(=O)(=O)CC)cc2)CC1c1ccc(C)cc1 (stereo unspecified)	17.8%
90	Cc1ccc(N(CC(=O)NC2CCCC2)C(=O)CNC(=O)c2cccs2)cc1F	-11.8%

New compounds follow.
no.	smiles	VDR inh
91	CCC(=O)N1CC23C=CC(CC2CC12CCCCC2)O3 (stereo unspecified)	-13.1%
92	O=C(CN(c1ccccc1)S(=O)(=O)c1ccccc1)NCCSc1ccccn1	10.8%
93	COc1ccc(Cl)cc1NC(=O)CCN1CCN(C)CC1	4.0%
94	CN(C)CCCNC(=O)C(=O)NCC(c1ccc2c(c1)OCO2)N1CCOCC1 (stereo unspecified)	1.5%
95	FC(F)(F)c1cccc(-c2ccc(/C=N/Nc3nncc(-c4ccccc4)n3)o2)c1	0.2%
96	COc1ccc(NC(=O)CCCNC(=O)Cn2cnc3sc4c(c3c2=O)CCCC4)cc1OC	-1.1%
97	Cc1cccc(C(=O)NNC(=O)c2cccc(C)c2)c1	-13.6%
98	CC(=O)c1ccc(S(=O)(=O)N2CCN(C(=O)c3ccc(N)c([N+](=O)[O-])c3)CC2)cc1	-21.0%
99	C=CCn1c(CCc2ccc(OC(C)C)cc2)n[nH]c1=S	-7.6%
100	CCCCNC(=O)Nc1ccc(Br)cn1	-1.5%
101	COCCN1C(=O)N(c2ccccc2)C(=O)C1CC(=O)Nc1cc(OC)cc(OC)c1 (stereo unspecified)	1.3%
102	Cc1ccc(C)c(NC(=S)N=Nc2c(O)n(C)c3ccc(S(=O)(=O)N4CCOCC4)cc23)c1	-2.9%
103	O=C(CC1C(=O)OCN1C(=O)OCc1ccccc1)OCC(=O)c1ccccc1 (stereo unspecified)	16.8%
104	Cc1ccc(NC(=O)Cn2cnc3sc(C(=O)NCc4ccco4)c(C)c3c2=O)cc1Cl	0.6%
105	COCc1c(C(=O)N2CCN(c3ccc(C(F)(F)F)cn3)CC2)oc2ccccc12	-3.0%
106	COc1ccccc1CNC(=O)CC12CC3CC(CC(Br)(C3)C1)C2	-9.3%
107	CCC(=O)c1ccc(OCC(=O)OCC(=O)NCC2CCCCC2)cc1	-15.4%
108	Cc1ccc2c(CN3CCCCC3CCO)cc(=O)oc2c1 (stereo unspecified)	6.9%
109	COc1ccc(CC(=O)NCC(=O)N=Nc2c(O)[nH]c3ccccc23)cc1	16.4%
110	O=C1Cc2cc(NS(=O)(=O)c3cc(F)ccc3F)cc3c2N1CCC3	4.5%
111	Cc1cccc(CCNC(=O)CCNC(=O)Cn2ccc3ccccc3c2=O)c1	-10.1%
112	Cn1c(-c2ccc(F)cc2)cc2onc(-c3ccccc3Cl)c2c1=O	0.3%
113	CCNC(=S)N1CCC(NC(=O)c2ccco2)CC1	20.8%
114	C=C(C)C(=O)Nc1cccc(C2=NOC3(C2)C[C@@H](C(N)=O)N(C(=O)c2cc([N+](=O)[O-])cc([N+](=O)[O-])c2)C3)c1 (stereo partly specified)	-4.9%
115	N=c1ccn(CC(=O)NC(N)=O)c2ccccc12	4.1%
116	Cc1cccc(Cn2cccc2/C=C2/C(=N)N3C=CSC3=NC2=O)c1	-3.7%
117	CCOC(=O)N1CCN(C(=O)CS(=O)(=O)c2cn(Cc3ccc(F)cc3)c3ccccc23)CC1	-7.1%
118	Cc1cccc(NC(=O)COC(=O)COc2ccc3c(c2)CCC3)c1	-6.9%
119	COc1cccc(N2CC(O)=C(c3ccccc3)C2=N)c1	-0.2%
